2A StopGo – lowers the luciferase signal of an FMDV 2A StopGo reporter | human cells with a luciferase reporter of 2A StopGo recoding; control for the full effect not named in the record | Potency, µM (doses to about 57.9 µM), without a hit: at the top dose signal change, negative = less light | 410,000 tested, 1.2% active; active = well fitted falling curve with a large enough effect; inconclusive = small, poorly fitted or top-dose-only effect; inactive = no such curve, though single readings can be large or run the other way; tested in HEK293T cells; also: % is scaled to controls: 0 for no effect and ±100 for the full control effect; nearly all actives have a fitted effect of over 45% in size; luciferase light after 4 h
MARV entry inh – Marburg virus entry inhibition; Potency, µM (doses to about 37.8 µM), inactives show top-dose activity change, negative = inhibition, hits mostly inhibitors; 300,000 tested, 1.8% active; Marburg virus pseudotyped entry inhibition, cell reporter; control for the full effect not named in the record; about a third of the inactives were read at about 46 µM; active = well fitted inhibition curve with a large enough effect; inconclusive = small, poorly fitted or top-dose-only effect, or effect the other way; inactive = flat fitted curve, though single readings scatter; tested in HEK293 cells; about a fifth of its hits are not listed in these tables; also: % is scaled to controls: 0 for no effect and ±100 for the full control effect; luciferase read-out
Cruzain inh noDet – inhibitors of Trypanosoma cruzi cruzain without detergent | AID 1476 | P25779 | Potency, µM, for the others: max response, negative = inhibition, actives largely listed as inhibitors | 200,000 tested, 2.3% active | purified cruzain, Z-FR-AMC fluorescence, no detergent; active = well fitted curve in the direction sought with a large enough effect; inconclusive = small, poorly fitted or top-dose-only effect, or another doubt; inactive = no such curve, though single readings can be large; an effect the other way counts as inactive or inconclusive;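 also: plate controls were enzyme without inhibitor for no effect and buffer without enzyme for full effect; nearly all actives have a fitted effect of over 40% in size; top concentration of the series not given in the record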
Target sequence (P25779 123-467 limits assumed): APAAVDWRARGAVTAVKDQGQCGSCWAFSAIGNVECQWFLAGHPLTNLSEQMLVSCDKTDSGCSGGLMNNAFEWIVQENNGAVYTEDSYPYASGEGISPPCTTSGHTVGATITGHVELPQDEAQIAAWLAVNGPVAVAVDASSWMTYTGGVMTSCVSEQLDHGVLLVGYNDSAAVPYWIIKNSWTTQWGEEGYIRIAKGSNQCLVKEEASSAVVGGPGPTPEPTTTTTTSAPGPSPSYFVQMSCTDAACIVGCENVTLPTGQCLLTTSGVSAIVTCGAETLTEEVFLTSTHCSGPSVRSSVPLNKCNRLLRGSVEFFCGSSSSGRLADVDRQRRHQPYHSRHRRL
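Detergent-free condition (0.00005% Triton X-100) in acetate buffer pH 5.5 with DTT. 1.5 nM enzyme and compound were pre-mixed 15 min, then 2 uM Z-FR-AMC substrate added; reaction progress from fluorescence change between first and third reads (60 s).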
NS1 inh – blocks influenza NS1 protein function | Potency, µM (titrated, usually from 46.1 µM), for the others: top-dose activity, positive = more growth | 270,000 tested, 0.4% active | S. cerevisiae slowed by influenza A NS1, growth recovery by OD600; also: actives are rising curves; nearly all actives have a fitted effect of over 50% in size
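In this qHTS, NS1 from influenza A is expressed in budding yeast, where it slows growth. Cells are switched from glucose to 2% galactose medium (pH 6.0, -URA), treated with compound, and growth recovery is read at OD600.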
SARS PLpro yeast – SARS-CoV PLP inhibition in yeast; 330,000 tested, 0.19% active; Potency, µM (titrated, usually from 32.9 µM), without a hit: top-dose activity, positive = growth rescue; S. cerevisiae expressing SARS-CoV PLpro, growth rescue; control for the full effect not named in the record; also: 0% is about no effect; nearly all actives have a fitted effect of over 55% in size; growth read by luminescence after 48 h
RE007 growth inh – less growth of the S. pombe RE007 Vpr strain | S. pombe RE007 Vpr strain, BacTiter-Glo ATP luminescence, 24 h; control for the full effect not named in the record | 360,000 tested, 0.21% active | Potency, µM (titrated, usually from 92.2 µM), inactives show at the highest dose activity change, negative = less growth; active = well fitted falling curve with a large enough effect; inconclusive = small, poorly fitted or top-dose-only effect; inactive = no such curve, though single readings can be large or run the other way;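 also: % is scaled to controls: 0 for no effect and ±100 for the full control effect; nearly all actives have a fitted effect of over 50% in size; the assay follows cell death caused by Vpr and the record does not say whether a fall means rescue or toxicity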
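Fission yeast RE007 carrying one integrated HIV-1 vpr copy, seeded at OD 0.01 in PMG+AL medium with 23 nL pinned compound. Grown 24 h at 30 degrees; viability read by BacTiter-Glo luminescence after 5 min.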
Cruzain Triton – cruzain (T. cruzi) inhibition with detergent. Potency, µM, without a hit: max response, negative = inhibition, usual class: inhibitors. AID 1478. purified cruzain, Z-FR-AMC fluorescence, 0.01% Triton. 200,000 tested, 0.43% active; active = well fitted curve in the direction sought with a large enough effect; inconclusive = small, poorly fitted or top-dose-only effect, or another doubt; inactive = no such curve, though single readings can be large; an effect the other way counts as inactive or inconclusive;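 also: plate controls were neutral wells for no effect and buffer without enzyme for full effect; nearly all actives have a fitted effect of over 40% in size; top concentration of the series not given in the record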
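Cruzain (1.5 nM) preincubated 15 min at RT with compound in 100 mM sodium acetate pH 5.5, 5 mM DTT, 0.01% Triton X-100. Reaction started with 2 uM Z-FR-AMC; AMC fluorescence (ex 360/em 450 nm) change over 60 s gave rate.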
Lassa entry inh – blocks Lassa virus binding to or entry into cells | Lassa virus pseudotype entry inhibition, cell reporter; control for the full effect not named in the record | Potency, µM (titrated, usually from 37.9 µM), without a hit: at the highest dose activity change, negative = inhibition, usual class: inhibitors | 300,000 tested, 1.2% active | AID 540256; active means well fitted inhibition curve with a large enough effect; inconclusive means small, poorly fitted or top-dose-only effect, or effect the other way; inactive means flat fitted curve, though single readings scatter; tested in HEK293 cells; also: % is scaled to controls: 0 for no effect and ±100 for the full control effect; nearly all actives have a fitted effect of over 50% in size; luciferase read-out
* hit, by the source's call; ? = inconclusive; . = no result given; [ ] = remark or other dose. Unless noted, calls follow the shape of the dose curve; as a rule, active means well fitted rising curve with a large enough effect; inconclusive means small, poorly fitted or top-dose-only effect; inactive means no such curve, though single readings can be large or run the other way. Potency is read from the fitted curve at half-maximal effect. Rows are unselected; 4.8% or so of the library scored in one or more.

Structure | NS1 inh | Cruzain inh noDet | MARV entry inh | Lassa entry inh | SARS PLpro yeast | Cruzain Triton | 2A StopGo | RE007 growth inh
Cc1cccn2cc(CNS(=O)(=O)c3ccc4ccccc4c3)nc12 | 1% | . | -23% | ? | 2% | . | ? | 1%
CC(C(=O)NCCN1C(=O)S/C(=C\c2cccs2)C1=O)N1C(=O)c2ccccc2C1=O (stereo not given) | 6% | 0% | 6% | -1% | 29% | -8.9% | -3% | -10%
COc1ccc(-c2csc(/C(C#N)=C\c3cccc([N+](=O)[O-])c3)n2)cc1 | -6% | ? | 16% | 3% | 3% | -5.8% | . | .
Cc1ccc(NC(=O)CN2CCC(C(=O)c3ccc(F)cc3)CC2)cc1 | -2% | -1% | -11% | -4% | -11% | -1.2% | 0% | -11%
Cc1scc(CN2CCN(c3ccc(F)cc3)CC2)c1C | . | -1% | . | -2%[46.1 µM] | . | 0.3% | -17% | .
COC(=O)c1[nH]c2ccc(Br)cc2c1NC(=O)CN1CCCCC1CCO (stereo not given) | 16% | 0% | -21%[46.1 µM] | 13% | -1% | -1.9% | 14% | -15%
CCNS(=O)(=O)c1ccc(NS(C)(=O)=O)cc1 | -2% | 7% | -9% | 0% | 0% | 2.0% | 5% | 9%
Cc1ccc(Nc2nc3ccccc3n3cnnc23)cc1Cl | -7% | . | . | . | -4% | . | -1% | 4%
C=Cc1ccc(Cn2c(C(=O)OC)cc3sc(C)cc32)cc1 | . | -18% | -13%[46.1 µM] | . | . | -5.3% | 28% | .
COC(=O)CCC(=O)OC1(C)C(=O)C2=CN(CC3CC3)C(c3ccc(OC)cc3)=CC2=C(Br)C1=O (stereo not given) | ? | . | . | . | 3% | . | -12% | 3%
CCC(O)c1c(-c2ccccc2)nn(C)c1Cl (stereo not given) | . | . | 0%[46.1 µM] | ? | 2% | . | -8% | -3%
COc1cccc(/C=N/n2c(CO)nc3ccccc32)c1OC | -19% | -13% | -13% | 2% | -13% | -1.8% | -8% | -1%
O=c1[nH]c(-c2ccc3c(c2)OCO3)nc2c1sc(=S)n2-c1ccccc1 | . | . | ? | 6% | 1% | . | 0% | 11%
Oc1cccc2ccc(/C=C/c3ccccc3Br)nc12 | -65% | . | ? | ? | -6% | . | 12% | -14%
CC(=O)N1CCCc2cc(S(=O)(=O)N(C)Cc3ccccc3)ccc21 | 1% | 7% | -5%[46.1 µM] | -11% | 2% | -3.3% | -19% | 12%
N#Cc1cnn(-c2ccccc2)c1NC(=O)CN1CCN(c2ccccc2)CC1 | -3% | . | -10%[46.1 µM] | -5% | 0% | . | -18% | 56%
Cc1cccc(COc2ccccc2/C=N/Nc2ccc([N+](=O)[O-])cc2)c1 | -1% | 25µM* | ? | -27% | -8% | 0.4% | 2% | -22%
CCc1c(C(=O)Nc2ccc(OC)cc2)[nH]c(C)c1C(C)=O | -49% | 6% | -9% | 34% | -7% | -2.7% | 10% | 1%
O=C(Nc1ccc2c(c1)OCCO2)c1cccc(Cl)c1 | -101% | . | ? | ? | -13% | . | 9% | -6%
CCNC(=O)COc1ccc(S(=O)(=O)Nc2ccccc2)cc1 | -3% | 7% | -8% | 3% | 21% | 4.0% | 12% | -14%
OC(COCc1ccccc1)Cn1cnc2ccccc21 (stereo not given) | 0% | 10% | 2% | -2% | -6% | 5.5% | 7% | 5%
NC(=S)Nc1cccc2cc3ccccc3cc12 | -218% | 7% | 12% | 23% | -48% | -8.7% | 54%[activator] | -26%
Cc1ccc(OCCCCNC2CCCCC2)c(C)c1 | . | . | 7.3µM* | ? | 0% | . | ? | 1%
Cc1ccc(S(=O)(=O)NNC(=O)Nc2ccccc2F)c(C)c1 | 7% | . | . | . | 0% | . | 21% | 2%
CCCCn1cc(S(=O)(=O)c2ccc(OC)cc2)c(=O)c2cc(F)c(F)cc21 | . | 8% | 6%[46.1 µM] | -14%[46.1 µM] | . | -0.5% | 19% | .
COc1cccc(-c2ccc3c(N)c(C(=O)Nc4ccccc4C)sc3n2)c1 | . | ? | . | 5%[46.1 µM] | . | -4.6% | 9% | .
O=C(NCc1ccc(F)cc1)C1CCCN1S(=O)(=O)c1cccc2nsnc12 (stereo not given) | -1% | . | . | . | 2% | . | -2% | -7%
O=C(NCCN1CCOCC1)c1cc(=O)[nH]c2ccc(Br)cc12 | 4% | -4% | 28% | -3% | 6% | -2.7% | 8% | -2%
CCOC(=O)C1=C(C)NC(SC)=C(C#N)C1CC(C)C (stereo not given) | 4% | . | ? | ? | 0% | . | -2% | 14%
CCOC(=O)C1CCN(c2cc3c(cc2NC(=O)c2ccc(F)cc2)n(C)c(=O)n3C)CC1 | 9% | . | -7%[46.1 µM] | 4%[46.1 µM] | -2% | . | -23% | 4%
COc1ccc(/C=C/C(=O)NC(C)(C)C)cc1S(=O)(=O)N1CCOCC1 | 3% | 0% | 7% | ? | 4% | -0.8% | -15% | -10%
Cc1ccc(S(=O)(=O)NC2CC2)cc1[N+](=O)[O-] | 21% | . | 0%[46.1 µM] | 2%[46.1 µM] | -2% | . | -8% | 3%
CCN(CC)CCNCc1cc(Cl)ccc1OCc1ccccc1F | -3% | . | ? | . | -1% | . | 2% | 6%
COc1ccc(CNC(=O)c2cc(S(=O)(=O)N3CCCCC3)ccc2Cl)cc1OC | . | . | ? | -26% | 19% | . | 14µM* | 1%
S=C(NCc1ccncc1)Nc1ccc(Cl)cc1 | -1% | -4% | 3% | -3% | -20% | -4.1% | 7% | ?
CC(OC(=O)CNS(=O)(=O)/C=C/c1ccccc1)C(=O)Nc1ccc(S(=O)(=O)N2CCCC2)cc1 (stereo not given) | -26% | ? | -25% | -2% | 7% | ? | 0% | -3%
CCOc1ccc(N2C(=O)CC(N3CCN(c4ccccc4OC)CC3)C2=O)cc1 (stereo not given) | -15% | . | . | . | -33% | . | -4% | 28µM*
O=C(CN1CCN(Cc2ccc(F)cc2Cl)S1(=O)=O)Nc1ccc(F)cc1 | . | 7% | . | 18%[46.1 µM] | . | -5.8% | -29% | .
COc1cc(C(=O)NC(=S)NNC(=O)[C@H]2C[C@@H]2c2ccccc2)cc(OC)c1OC | 11% | . | ? | ? | -1% | . | 0% | 6%
O=C(N/N=C/c1ccc2c(c1)OCO2)c1cccnc1 | 5% | . | 2%[46.1 µM] | 17%[46.1 µM] | 1% | . | 29% | 2%
Cc1nnc(SCC(=O)Nc2ncc(S(=O)(=O)c3ccc([N+](=O)[O-])cc3)s2)s1 | 14% | ? | ? | ? | -1% | 5.1% | -17% | 8%
COc1ccc(C(=O)NC(C)CCCC(C)(C)O)cc1OC1CCN(C(C)=O)CC1 (stereo not given) | 0% | . | . | . | 4% | . | 12% | -8%
Cc1cc2c(=O)n(Cc3ccco3)c(SCC(=O)NCc3ccco3)nc2s1 | 20% | -28% | -1% | 0% | 0% | 3.9% | 8% | -1%
CC1Cc2ccccc2N1C(=O)C1CCCN(S(=O)(=O)c2cccc3cccnc23)C1 (stereo not given) | -32% | -25% | . | . | -10% | -4.8% | ? | -3%
CC(Cc1ccc(Cl)cc1)N1CCC(n2nccc2NC(=O)C2CCCC2)CC1 (stereo not given) | 14% | . | . | . | 2% | . | 6% | -13%
NC(=O)NC(=O)COC(=O)c1ccc2c(c1)C(=O)N(Cc1ccccc1)C2=O | 2% | . | . | . | 1% | . | -13% | -16%
CCOCCCn1c(SCC(=O)NCc2ccccc2)nc2c(sc3ccccc32)c1=O | . | 11% | . | -8%[46.1 µM] | . | 3.2% | -24% | .
COc1ccc2c(c1)C1=NN(/C(C)=C\C(C)=O)C(c3ccccc3)C1CC2 (stereo not given) | -16% | 25µM* | -3% | 13% | -4% | -6.8% | 39%[activator] | -6%
O=C(CSc1ccccc1)Nc1nc2ccccc2[nH]1 | 8% | -3% | ? | -16% | -6% | -7.2% | 0% | 15%
COc1ccc(-c2cnnn2-c2ccc(NC(=O)/C=C/c3ccc(OC)c(OC)c3)cc2)cc1 | -18% | 13µM* | ? | ? | -3% | 3.5µM* | 0% | 2%
N#CCC(=O)N/N=C/c1ccc(OS(=O)(=O)c2ccccc2)cc1 | 14% | 1% | 3% | -11% | 2% | 2.9% | -7% | 7%
COc1cccc(C2CC(c3cccs3)=NN2C(=O)CSc2nc3ccccc3o2)c1OC (stereo not given) | -6% | ? | 13% | 18% | -6% | 3.5µM* | ? | 4%
COc1cc2c(cc1OC)C(c1ccccc1O)N(C1CC(=O)N(c3ccccc3)C1=O)CC2 (stereo not given) | 9% | ? | ? | 7% | -27% | -5.4% | -16% | -28%
COc1cccc(CNC(=O)C2Cc3cc(S(=O)(=O)N4CCCC4)ccc3N2C(C)=O)c1OC (stereo not given) | -5% | . | . | . | 4% | . | -9% | -3%
COc1ccc(S(=O)(=O)c2c(C(=O)c3ccc(C)c(C)c3)cnc3ccc(F)cc23)cc1 | . | 13µM* | ? | . | . | -2.9% | ? | .
Cc1c(OC(C)C(=O)N2C[C@H]3C[C@@H](C2)c2cccc(=O)n2C3)ccc2c3c(c(=O)oc12)CCCC3 (stereo not given in full) | 6% | . | . | . | -15% | . | 0% | -19%
CCN1CCC2(CCN(C(=O)c3cc(COc4cc(C)ccc4C)on3)C2)C1 (stereo not given) | 10% | . | . | . | -6% | . | -14% | -14%
COc1cccc(NS(=O)(=O)c2ccc3[nH]cc(C(=O)N4CCCCCC4)c(=O)c3c2)c1 | . | 14% | 4%[46.1 µM] | 6%[46.1 µM] | . | -0.5% | 0% | .
CCc1ccc(S(=O)(=O)N(C(=O)c2ccncc2)c2ccc3oc(C)c(C(=O)OC)c3c2)cc1 | . | -3% | ? | ? | . | -6.5% | -5% | .
COc1ccc(-c2onc(C)c2C)cc1S(=O)(=O)NC1CCC(C)CC1 (stereo not given) | . | 6% | . | ? | . | -3.6% | 12% | .
CCOC(=O)c1ccccc1NC(=O)c1c(O)c2ccccc2n(CC)c1=O | 6% | ? | 2% | 7% | -2% | -6.0% | -28% | 1%

Screens from PubChem.
